Source: PubChem
PINK1 expr mod – A Quantitative High throughput Screen to Identify Chemical Modulators of PINK1 Expression; PINK1 immunofluorescence, high-content cytometry, 24 h; Potency, µM (series often up to 76.6 µM), without a hit: at the highest dose activation (PINK1 increase), most hits filed as activators; 0.2% of 410,000 active; active = well fitted activation curve with a large enough effect; inconclusive = small, poorly fitted or top-dose-only effect; inactive = flat fitted curve, though single readings scatter; cell line not stated here;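 also: potency is read from the fitted curve at half-maximal effect; % of control where 0% means no effect; nearly all actives have a fitted effect of over 65% in size; a mitochondrial uncoupler was the plate control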
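Compound titrations (5 concentrations, 24 h) on a stable cell line; DMSO and CCCP controls. Endpoint: fixed-cell PINK1 immunofluorescence with mitochondrial, cell and nuclear markers, scanned by microplate cytometer.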
TRPML1 ag – qHTS for Agonists of the Human Mucolipin Transient Receptor Potential 1 (TRPML1); AID 624414, 2012; TRPML1-expressing cells, Ca2+ dye fluorescence, FDSS; host cell line not named in the record; reference of the full effect not given here; 0.12% of 410,000 active; activation, % (no concentration beside the values); in the data active = activation above about 50%; inconclusive = about 30% to 50%; inactive = below about 30%; also: 0% is about no effect; the text of the record puts the active cut at 80%
Target sequence (Q9GZU1 whole entry, looked up): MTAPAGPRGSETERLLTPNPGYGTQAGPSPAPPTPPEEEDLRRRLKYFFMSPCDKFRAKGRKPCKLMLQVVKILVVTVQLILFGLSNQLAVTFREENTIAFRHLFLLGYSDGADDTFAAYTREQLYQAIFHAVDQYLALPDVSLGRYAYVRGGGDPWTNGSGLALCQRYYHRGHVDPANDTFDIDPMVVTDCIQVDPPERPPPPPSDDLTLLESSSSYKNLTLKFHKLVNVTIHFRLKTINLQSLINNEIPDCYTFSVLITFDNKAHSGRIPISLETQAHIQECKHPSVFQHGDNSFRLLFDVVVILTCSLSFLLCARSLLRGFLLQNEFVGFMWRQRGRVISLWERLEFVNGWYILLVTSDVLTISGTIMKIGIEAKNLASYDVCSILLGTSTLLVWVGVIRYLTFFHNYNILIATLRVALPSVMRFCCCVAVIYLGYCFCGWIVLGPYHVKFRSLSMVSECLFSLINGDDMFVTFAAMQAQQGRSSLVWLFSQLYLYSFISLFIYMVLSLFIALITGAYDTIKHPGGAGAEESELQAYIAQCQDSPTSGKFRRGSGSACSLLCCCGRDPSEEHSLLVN
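In this qHTS format, compounds were pin-transferred onto Ca8-dye-loaded TRPML1-DL cells induced with Tet overnight, and intracellular Ca2+ fluorescence was recorded kinetically for 110 s after a 10 s baseline. A subsequent 4uM final 54-4 (EC80) addition followed by a second 110 s read served as the antagonist phase.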
Starred values were filed as active, the others as inactive. The list is partial (hit frequency here may not be typical).

No. | smiles | PINK1 expr mod | TRPML1 ag
1 | CCNC(=O)CC1C(=O)N(c2ccc(C)cc2)C(=O)N1Cc1ccc(C)cc1 (stereo not drawn) | 0.7% | 0.1
2 | O=C(CSc1c2c(nc3ccccc13)CCC2)Nc1ccc(F)cc1F | 2.4% | 1.1
3 | Cc1ccc(-c2nc3cc(NC(=O)Cc4ccc(Cl)cc4)ccc3o2)cc1 | -0.3% | -0.6
4 | Cc1cc(NC(=O)Cc2ccccc2)cc(-c2nc3ccccc3o2)c1O | -0.1% | 0.7
5 | CCCCc1nn2c(=O)cc(COC(=O)c3ccc(NC(=O)CCc4ccccc4)cc3)nc2s1 | 2.0% | -0.4
6 | COC(=O)c1c(NC(=O)Cc2coc3ccc(C(C)C)cc23)sc2c1CCC2 | 0.4% | -1.0
7 | Cc1c(Cl)cccc1NC(=O)CC(c1cccs1)N1Cc2ccccc2C1=O (stereo not drawn) | -4.7% | 1.2
8 | CSc1cccc(NC(=O)N2CCN(c3cc(-c4noc(C)n4)ccc3C)CC2)c1 | -3.9% | 2.7
9 | CCC(C)NC(=O)c1c2c(nc3ccccc13)C(=O)N(C1CCCCC1)C2 (stereo not drawn) | -0.7% | -0.8
10 | COc1ccc2cc(-c3nnc(Nc4ccccc4)s3)c(=O)oc2c1 | 3.7% | 1.0
11 | Cc1ccccc1C(=O)Nc1cccc(C(=O)OCc2cc(=O)n3nc(C4CC4)sc3n2)c1 | 0.0% | 0.1
12 | CCOCCCn1c(=N)c(C(=O)NC2CCCC2)cc2c(=O)n3cccc(C)c3nc21 | -0.2% | -0.4
13 | COc1ccc(NC(=O)Cn2ncc3c([nH]c4ccccc43)c2=O)cc1Cl | 2.7% | 0.8
14 | Cc1cc(NC(=O)CCNS(=O)(=O)c2ccc3c(c2)CCCC(=O)N3)ccc1Br | 0.4% | 1.0
15 | COc1ccc(-c2cn3nc(N4CCC(C(=O)Nc5ccc(Cl)cc5C)CC4)sc3n2)cc1 | -0.6% | 1.2
16 | Fc1ccc2[nH]c(-c3cccs3)cc2c1 | -0.8% | 1.3
17 | O=C(NCCCN1CCN(c2cccc(Cl)c2)CC1)c1sc2ncccc2c1-n1cccc1 | -1.7% | 2.9
18 | CCOc1ccc(CCNC(=O)C(CC(C)C)N2Cc3ccccc3C2=O)cc1OCC (stereo not drawn) | -0.1% | 2.1
19 | CCOC(=O)c1cc(-c2ccccc2)n(CCC(=O)NCCc2ccc(OC)c(OC)c2)c1C | -0.8% | 3.6
20 | CCOC(=O)c1sc2ncn(CC(=O)Nc3ccc(N(C)C)cc3)c(=O)c2c1C | 0.4% | 0.0

The listing continues:
No. | smiles | PINK1 expr mod | TRPML1 ag
21 | COc1ccc(NC(=O)c2cccc(N3CCCS3(=O)=O)c2)cc1 | -0.1% | 1.0
22 | Cc1ccccc1CN1C(=O)C(O)(c2c[nH]c3ccccc23)c2cc(Cl)ccc21 (stereo not drawn) | -1.9% | -0.8
23 | O=C(NCCc1nc2ccccc2n1CCCOc1ccccc1Cl)C1CCCCC1 | 2.2% | 1.6
24 | CC1CN(C(=O)Nc2ccc(C(=O)NCc3ccccc3F)cc2)c2ccccc2S1 (stereo not drawn) | -0.7% | 3.1
25 | CCC(Sc1nc2ccncc2[nH]1)C(=O)Nc1cc(C)ccc1C (stereo not drawn) | 3.3% | 2.2
26 | CCOc1ccc(NC(=O)CC2C(=O)N(c3ccccc3)C(=O)N2CCc2sccc2C)cc1 (stereo not drawn) | 0.3% | 0.7
27 | Cc1cccc(NC(=O)C2CCN(S(=O)(=O)c3ccc4[nH]c5c(c4c3)CCCCC5)CC2)c1 | -0.7% | 0.8
28 | C[N+]1(CC(=O)c2cccs2)CCOCC1 | 0.0% | -0.3
29 | CCOC(=O)c1c(C)[nH]c(C)c1S(=O)(=O)N1CCC(C(=O)N2CCN(c3cccc(Cl)c3)CC2)CC1 | 1.0% | -0.9
30 | COc1ccccc1NC(=O)CSc1oc(-c2ccccc2)nc1S(=O)(=O)c1ccc(C)cc1 | -0.4% | 0.8
31 | Cc1cccc(NC(=O)NCCOCCn2c(=O)oc3ccccc32)c1C | -1.1% | -0.7
32 | Cc1ccc(C)c(N2CCN(CCCNC(=O)Cn3ncc4c5ccccc5n(C)c4c3=O)CC2)c1 | 4.1% | 5.6
33 | Cc1nc2ccn(Cc3ccccc3)c(=O)c2cc1C(=O)N1CCN(c2ccccc2F)CC1 | 1.1% | 0.0
34 | COc1cccc(OCc2nc3ccccc3n2CCOc2ccccc2)c1 | -0.6% | 7.7
35 | CCc1ccccc1NC(=O)Nc1cc(C(=O)NCc2cccc(F)c2)ccc1N1CCCC1 | 25.7% | -0.4
36 | CC(=O)N1CCC(N(Cc2ccc(C)o2)C(=O)Nc2ccc(C)cc2)CC1 | 0.8% | -0.6
37 | Cc1ccc2c(CNC3CCCCC3)c(C(=O)O)n(Cc3ccc(F)cc3)c2c1 | 0.9% | 0.1
38 | COc1ccc(NC(=O)c2oc3ccccc3c2NC(=O)c2cc(=O)c3cc(Cl)ccc3o2)cc1 | 2.2% | 1.2
39 | CC(C)c1ccc(S(=O)(=O)c2cnc(SCC(=O)Nc3ccc(F)cc3F)nc2N)cc1 | 5.9% | 0.0
40 | CCc1ccc(C2c3c(-c4ccccc4O)n[nH]c3C(=O)N2Cc2ccncc2)cc1 (stereo not drawn) | 8.1% | 0.9

Compounds 21 to 23, reprinted for reference:
No. | smiles | PINK1 expr mod | TRPML1 ag
21 | COc1ccc(NC(=O)c2cccc(N3CCCS3(=O)=O)c2)cc1 | -0.1% | 1.0
22 | Cc1ccccc1CN1C(=O)C(O)(c2c[nH]c3ccccc23)c2cc(Cl)ccc21 (stereo not drawn) | -1.9% | -0.8
23 | O=C(NCCc1nc2ccccc2n1CCCOc1ccccc1Cl)C1CCCCC1 | 2.2% | 1.6

Further compounds.
No. | smiles | PINK1 expr mod | TRPML1 ag
41 | Cn1c(=O)c2c(n3c4ccccc4nc13)NC(=O)CC2c1ccccc1F (stereo not drawn) | -0.5% | 0.1
42 | CCc1ccc2oc(C(=O)NCCc3ccc(OC)c(OC)c3)cc(=O)c2c1 | 4.0% | -1.3
43 | CNC(=O)COc1ccc(NC(=O)CCn2nc(-c3ccc(C)cc3)c3ccccc3c2=O)cc1 | 6.6% | 0.9
44 | CCOc1ccccc1NC(=O)C1=C(C)Nc2ncnn2C1c1cccs1 (stereo not drawn) | -4.6% | 1.8
45 | COc1ccc(NC(=O)CSc2nc(-c3cccc(C)c3)[nH]c2-c2ccccc2)cc1OC | -0.5% | 1.7
46 | CN(C(=O)Cn1cc(S(=O)(=O)N2CCN(c3ccccc3F)CC2)c2ccccc2c1=O)c1ccc(Cl)cc1 | 5.9% | 0.5
47 | COc1ccccc1CNc1ccc(-c2nc(-c3ccccn3)no2)cc1[N+](=O)[O-] | 0.6% | 0.7
48 | CCC(C)NC(=O)c1sc2nc3n(c(=O)c2c1C)CCC3 (stereo not drawn) | -0.6% | -0.4
49 | CC(C)c1ccc(S(=O)(=O)c2nnn3c2nc(N2CCCC2)c2sccc23)cc1 | 0.0% | -0.1
50 | COC(=O)CSc1ncc2c(n1)-c1ccccc1N(Cc1ccccc1C)S2(=O)=O | 2.2% | 1.4
51 | Nc1nc(N)c(S(=O)(=O)c2ccccc2)c(Nc2ccc(Br)cc2)n1 | 1.4% | 3.9
52 | N#CC1=C2SCN(C3CCCCC3)CN2C(=O)CC1c1ccc(F)cc1 (stereo not drawn) | -1.0% | -0.6
53 | Cc1ccc2nc(-c3cc(NC(=O)COc4ccc(C)c(C)c4)ccc3Cl)oc2c1 | 6.9% | 2.0
54 | O=C(CCSCc1cccc(Cl)c1)NCc1ccccc1Cl | -0.3% | 1.5
55 | CCc1cccc(NC(=O)c2cc3c(=O)n(Cc4ccccc4)ccc3nc2C)c1 | 2.6% | 1.5
56 | Cc1ccc(Nc2ncnc3nc[nH]c23)cc1 | -0.2% | -0.9
57 | COc1cc(NC(=O)N2CCC3(CC2)Nc2ccccc2-n2cccc23)cc(OC)c1OC | 1.2% | 0.4
58 | O=C(Nc1cc(Cl)ccc1O)c1cc2nc(-c3ccc4c(c3)OCO4)cc(C(F)(F)F)n2n1 | 5.2% | 0.3
59 | CCCCN(CCCC)C(=O)c1c[nH]c2ccc(S(=O)(=O)Nc3cccc(Cl)c3C)cc2c1=O | 0.0% | 0.1
60 | CCN(Cc1ccccc1)C(=O)Cn1c(=O)n(-c2cccc(C)c2)c(=O)c2c1c1cc(OC)ccc1n2C | 4.9% | -0.3

Next results follow:
No. | smiles | PINK1 expr mod | TRPML1 ag
61 | Cc1ccc(/C=C/c2onc(C)c2S(=O)(=O)N2CCC(C(=O)NCc3ccc(Cl)cc3)CC2)cc1 | -0.3% | -0.5
62 | CCOC(=O)C1CCC(CN(Cc2cccc(Br)c2)S(=O)(=O)c2ccc(C)cc2)CC1 (stereo not drawn) | -0.7% | 8.8
63 | COc1ccc(-c2nnc(SCC(=O)c3ccc(NC(C)=O)cc3)o2)cc1OC | 1.1% | 0.2
64 | CCCCc1nn2c(=O)cc(COC(=O)c3ccco3)nc2s1 | 0.9% | -0.7
65 | O=S(=O)(Nc1cccc(-c2ccc(N3CCCC3)nn2)c1)c1ccc(F)c(C(F)(F)F)c1 | 1.6% | 2.1
66 | COc1cc(C(=O)Nc2ccccc2-c2nc(-c3ccc(C)cc3)no2)cc(OC)c1OC | 0.6% | 0.2
67 | Cc1ccc(NC(=O)CSc2nc3ccccc3nc2Cc2ccccc2)c(C)c1 | -4.7% | 0.3
68 | Cc1ccc2c(c1)C(c1ccc(F)cc1)N(C(=O)c1ccc(OC(C)C)cc1)CC(=O)N2 (stereo not drawn) | 0.9% | -0.2
69 | CCCCCCNC(=O)c1c[nH]c2ccc(S(=O)(=O)N(C)c3ccc(C(C)C)cc3)cc2c1=O | 1.3% | 2.0
70 | Cc1cccc(-c2nc3scc(CCNS(=O)(=O)c4ccc(F)c(C(F)(F)F)c4)n3n2)c1 | 3.8% | 2.0
71 | COc1ccc(C)cc1NC(=O)Cn1cc(S(=O)(=O)N2CCC(C)CC2)c2ccccc2c1=O | 0.3% | 0.0
72 | Cc1ccccc1C(=O)Nc1cccc(-c2cn3cccnc3n2)c1 | 0.7% | -0.3
73 | CCc1ccc(S(=O)(=O)c2cn(C)c3cc(N4CCCC4)c(F)cc3c2=O)cc1 | 2.0% | -0.3
74 | O=S(=O)(Nc1ccc(F)c(Cl)c1)c1ccc(Br)s1 | 2.0% | -0.7
75 | CCOc1ccc(OCCOCCn2c(-c3ccc(Cl)cc3)nc3ccccc3c2=O)cc1 | 3.0% | 0.4
76 | COc1ccc(CNC(=O)C(CCSC)NS(=O)(=O)c2ccc3c(c2)oc(=O)n3C)cc1 (stereo not drawn) | 0.2% | 0.7
77 | Cc1cc(OCC(=O)N(Cc2ccc(N(C)C)cc2)C2CCS(=O)(=O)C2)cc(C)c1Cl (stereo not drawn) | 0.7% | 1.8
78 | COc1ccc(CCNC(=O)CCCn2c(=O)c3ccccc3n(Cc3ccccc3C#N)c2=O)cc1OC | 1.3% | -0.6
79 | O=C(Cn1c(=O)n(CCCS(=O)(=O)C2CCCCC2)c(=O)c2ccccc21)Nc1ccccc1F | 0.0% | 1.5
80 | COc1ccc(NCc2cc3cc4c(cc3n(CC(=O)Nc3ccc(C)cc3)c2=O)OCO4)cc1 | 0.4% | 3.7

The list goes on, starting with the last two of the part before.
No. | smiles | PINK1 expr mod | TRPML1 ag
79 | O=C(Cn1c(=O)n(CCCS(=O)(=O)C2CCCCC2)c(=O)c2ccccc21)Nc1ccccc1F | 0.0% | 1.5
80 | COc1ccc(NCc2cc3cc4c(cc3n(CC(=O)Nc3ccc(C)cc3)c2=O)OCO4)cc1 | 0.4% | 3.7
81 | CC1CCN(c2nnc(-n3cccc3CNc3cccc(F)c3)s2)CC1 | -2.9% | 2.5
82 | CN(C(=O)c1cc(-c2ccccc2O)on1)c1ccccc1 | 0.9% | -0.2
83 | Cc1nn(C(C)C(=O)N2CCN(c3ccc(Cl)cc3)CC2)c(=O)c2cc3occc3n12 (stereo not drawn) | 2.9% | -0.1
84 | Cc1ccc(-c2nc3ccccc3[nH]2)cc1NC(=O)COc1ccc(Cl)cc1Cl | 6.5% | 0.9
85 | CCOC(=O)CNC(=O)c1cc2c(=O)n3cccc(C)c3nc2n1C | 0.5% | 1.7
86 | O=C(CSc1nc2ccccc2nc1Cc1ccccc1)Nc1ccc2c(c1)OCO2 | 0.1% | 2.4
87 | O=C(O)CSc1nnc(-c2ccc(O)cc2)o1 | 0.6% | 1.6
88 | COc1ccc(N(C(=O)c2ccccc2C)S(=O)(=O)c2ccc(C)cc2)cc1 | 6.1% | 0.1
89 | COc1ccc(CCNC(=O)CCCn2c(=O)c3cccn3c3ccccc32)cc1OC | 1.1% | 3.3
90 | CCOc1ccc(NC(=O)Cn2c(=O)n(CCCC(=O)NCc3ccc4c(c3)OCO4)c(=O)c3ccccc32)cc1 | 1.4% | -0.5
91 | Cc1cccc(-c2noc(-c3cccnc3NCc3ccccc3Cl)n2)c1 | 0.4% | -1.1
92 | O=C(COc1ccc(Cl)cc1)Nc1ccccc1C(=O)OCc1cc(=O)n2ccsc2n1 | -0.2% | -0.5
93 | CCc1nc2ccc(C(=O)NCCc3ccc(SC)cc3)cc2nc1CC | 0.3% | 0.7
94 | Cc1cc(C)c(Cn2c(=O)n(CCC(=O)NCCc3ccccc3)c(=O)c3ccccc32)c(C)c1 | -0.4% | -0.1
95 | Cc1ccc2oc(-c3cccc(NC(=O)c4cccc5c(Cl)cccc45)c3)nc2c1 | 2.4% | 0.0
